KCNQ2 block: KCNQ2 potassium channel inhibitors, primary screen, cell-based, CHO-K1, FluxOR thallium flux, B-score (AID 2156) | 20 min; active compounds read low; only compounds with negative scores are shown here; some inactives read as strong as hits | B-score at 10 µM | O88943 | 310,000 tested, 1.1% active;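 active means fluorescence ratio B-score at most minus 3 library SDs, with starting brightness B-score within 2 library SDs, cut at about -5.5 in these data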
Target sequence (O88943 whole entry, looked up): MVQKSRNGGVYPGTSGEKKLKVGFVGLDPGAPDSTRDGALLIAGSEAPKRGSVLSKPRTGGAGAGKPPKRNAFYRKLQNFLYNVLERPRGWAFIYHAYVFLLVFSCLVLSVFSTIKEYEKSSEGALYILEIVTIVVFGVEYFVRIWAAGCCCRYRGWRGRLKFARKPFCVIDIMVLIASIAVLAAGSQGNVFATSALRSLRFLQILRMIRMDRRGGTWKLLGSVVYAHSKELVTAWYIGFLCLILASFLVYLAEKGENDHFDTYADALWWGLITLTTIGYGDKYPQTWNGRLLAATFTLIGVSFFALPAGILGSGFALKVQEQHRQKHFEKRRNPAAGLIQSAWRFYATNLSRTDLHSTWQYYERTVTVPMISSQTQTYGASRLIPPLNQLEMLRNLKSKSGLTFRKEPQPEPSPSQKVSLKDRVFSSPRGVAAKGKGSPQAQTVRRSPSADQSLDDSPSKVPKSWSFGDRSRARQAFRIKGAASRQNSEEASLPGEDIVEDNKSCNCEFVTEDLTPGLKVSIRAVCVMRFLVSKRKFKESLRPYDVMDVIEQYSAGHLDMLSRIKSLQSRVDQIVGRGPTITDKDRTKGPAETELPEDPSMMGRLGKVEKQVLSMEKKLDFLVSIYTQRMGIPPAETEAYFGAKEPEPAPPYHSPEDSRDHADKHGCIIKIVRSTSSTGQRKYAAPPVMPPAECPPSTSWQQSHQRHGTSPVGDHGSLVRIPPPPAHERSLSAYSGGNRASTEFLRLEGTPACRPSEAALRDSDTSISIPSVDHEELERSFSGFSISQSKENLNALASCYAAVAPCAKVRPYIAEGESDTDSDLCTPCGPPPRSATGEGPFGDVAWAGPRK
KCNQ2 block baseline: recorded beside KCNQ2 block, whose call it bears; B-score; measured here: initial fluorescence intensity artifact check;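 brightness before thallium and not channel activity; 0 = typical well and far values either way flag optical interference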
The depositor's hits bear a star; i = inactive. Not all compounds are listed (hit frequency here may not be typical).

A first look (3 entries):
KCNQ2 block	KCNQ2 block baseline	molecule
i	-0.14	Cc1ccc(-n2nnnc2SC(C)C(=O)Nc2ccc(Cl)cn2)cc1 (stereo not drawn)
i	1.53	O=CN1N=C(c2ccccc2)CC1c1ccc(Cl)cc1 (stereo not drawn)
i	1.28	O=C(CSc1ncnc2c1oc1ccccc12)N1CCCc2ccccc21

The list itself, previewed entries included:
KCNQ2 block	KCNQ2 block baseline	molecule
i	-0.14	Cc1ccc(-n2nnnc2SC(C)C(=O)Nc2ccc(Cl)cn2)cc1 (stereo not drawn)
i	1.53	O=CN1N=C(c2ccccc2)CC1c1ccc(Cl)cc1 (stereo not drawn)
i	1.28	O=C(CSc1ncnc2c1oc1ccccc12)N1CCCc2ccccc21
i	0.95	Cc1ccc(NC(=O)c2cccc(N3C(=O)C4C5CCC(C5)C4C3=O)c2)c(C)c1 (stereo not drawn)
i	-0.92	c1ccc(SCCN2CCc3ccccc3C2)cc1
i	0.12	O=C(Nc1ccc2oc(-c3ccccc3F)nc2c1)c1ccc([N+](=O)[O-])o1
i	1.14	CC1(C)CC(=O)C(C(=S)Nc2ccccc2)=C(NCCN2CCOCC2)C1
i	0.09	Oc1c(C(c2ccco2)N2CCN(C(c3ccccc3)c3ccccc3)CC2)sc2ncnn12 (stereo not drawn)
i	0.22	CN=c1scc(-c2ccc(OC)cc2)n1/N=C(\C)c1cccnc1
i	0.77	CCCN(C(=O)CSCc1ccc(Cl)cc1)c1c(N)n(Cc2ccccc2)c(=O)[nH]c1=O
-7.42*	1.16*	Cc1ccc(C)c(OCC(=O)N/N=C/c2c(C)nn(-c3ccccc3)c2Cl)c1
i	-1.19	CCOC(=O)CNC(=O)CSc1nccn1Cc1ccco1
i	-0.96	O=C(NCCOc1cccc(Cl)c1Cl)c1cc(-n2cnnc2)ccc1Cl
i	-0.45	CC(=O)Nc1ccc(N=Cc2nc(-c3ccc(C)cc3)oc2O)cc1
i	2.06	CCOC(=O)C1=C(N)OC2=C(C(=O)CCC2)C1c1ccc2c(c1)OCO2 (stereo not drawn)
i	1.05	CN(C)CCCN(CCCN(C)C)C(=S)Nc1ccc(S(=O)(=O)N2CCOCC2)cc1
i	1.07	CCOc1ccc(NC(=S)Nc2ccc(OC)cc2)cc1
i	3.27	Cc1ccc(NC(=O)/C(C#N)=C(\N)C(Cl)(Cl)Cl)nc1
i	0.32	Cc1ccc(C2CC(c3ccco3)=NN2S(C)(=O)=O)cc1 (stereo not drawn)
i	1.09	O=C(Nc1cccc(C(F)(F)F)c1)C(Sc1n[nH]c(=O)[nH]c1=O)c1ccccc1 (stereo not drawn)
i	1.42	COC(=O)c1ccc(NC(=S)NCCc2ccccc2)cc1
i	-1.62	Cc1nc2c(C)cccc2cc1C(=O)N/N=C/c1cccnc1
i	-0.08	Cn1cnc([N+](=O)[O-])c1Sc1nc2ccccc2[nH]1
i	-1.51	CSCC[C@H](NC(=O)[C@@H]1Cc2ccccc2CN1)C(=O)NC[C@H]1CC[C@H](C(=O)O)CC1
i	-1.24	COc1ccc(CNc2nc3ccccc3n2CCN2CCCCC2)cc1
i	-1.49	CCOCc1c(C(=O)Nc2cc(OCC)c(N3CCOCC3)cc2OCC)oc2ccccc12
-8.3*	-0.97*	O=[N+]([O-])c1ccc(C2CCCC/C2=N\OCc2cccc(F)c2)c([N+](=O)[O-])c1 (stereo not drawn)
i	1.66	O=C1Nc2cc(Cl)cnc2N2CCCC12 (stereo not drawn)
i	-0.08	Fc1ccc(CO/N=C/C2=C(Cl)c3ccccc3CC2)cc1
i	-0.88	Cc1cc(C)n(-c2ccccc2[N+](=O)[O-])n1
i	-1.46	Cc1ccc2c(c1)c1c(n2CC(O)CNC2CCCC2)CCCC1 (stereo not drawn)
i	1.7	CSc1cccc(NC(=S)NCCCN2CCN(c3ccc(F)cc3)CC2)c1
i	0.03	COc1ccc(N(CC(=O)NC2CCCCC2)S(=O)(=O)c2cccnc2)cc1
i	0.03	CC1(C)CC(=O)C2=C(C1)NC1=C(C(=O)c3ccccc31)C2c1cc([N+](=O)[O-])ccc1O (stereo not drawn)
i	-1.42	O=C(COc1ccc(S(=O)(=O)N2CCOCC2)cc1)NCCCn1ccnc1
i	-0.09	O=C(c1cccc2ccccc12)C1CCCN(C(=O)c2ccc(N3CCOCC3)cc2)C1 (stereo not drawn)
i	-0.33	O=S(=O)(c1ccccc1Cl)N1CCC(Cc2ccccc2)CC1
i	0.08	NNC(=O)c1[nH]c2ccc([N+](=O)[O-])cc2c1-c1ccccc1
i	0.21	O=[N+]([O-])c1ccccc1Nc1c2ccccc2nc2ccccc12
i	-1.5	O=C(Nc1cccc([N+](=O)[O-])c1)c1ccc2nc(N3C(=O)CCC3=O)sc2c1
i	-2.88	CCCCN(C)CCN1C(=O)C2C(C(=O)Nc3ccc(C)cc3)C3C=CC2(O3)C1C(=O)NC1CCCCC1 (stereo not drawn)
i	-0.02	CC(=O)c1cccc(OCC(=O)N2CCCc3ccccc32)c1
i	0.89	CCN(CC)c1ccc(/C=N/Nc2ccccc2)c(O)c1
i	0.38	OC(CNCc1ccccc1Cl)COc1ccc(F)cc1 (stereo not drawn)
i	-0.55	CC(C)c1[nH]nc2c1C(C1C=CCCC1)C(C#N)=C(N)O2 (stereo not drawn)
i	2.81	Cc1nnc(NC(=O)CS(=O)(=O)Cc2ccccc2)s1
i	-0.37	O=C(c1cccs1)n1nc(-c2ccccc2)nc1NCc1ccco1
i	0.68	Cc1nn(C)cc1CNCc1c(C(=O)N2CCCCC2)nc2c(C)cccn12
i	1.17	Cc1ccc(NC(=O)c2cnccn2)c(Br)c1
i	0.05	O=C(CN1CCN(S(=O)(=O)c2ccc(Cl)cc2)CC1)Nc1ccc2c(c1)OCCO2
i	0.37	CN(CC(=O)Nc1cccc(F)c1)C(=O)CSc1nc2ccccc2s1
i	-0.5	Cc1c(C(=O)O)oc2ccc(S(=O)(=O)NCc3ccc4c(c3)OCO4)cc12
i	-0.71	CCc1nc2scc(-c3cccs3)c2c(=O)o1
i	0.11	CCCC1CCC(c2ccc(OCC)cc2)=CC1=O (stereo not drawn)
i	0.53	O=C(CCSCCc1ccncc1)NCCCN1CCOCC1
i	0.37	O=C(NCc1ccncc1)c1nnc(Cc2c(F)cccc2Cl)o1

Continuation:
KCNQ2 block	KCNQ2 block baseline	molecule
i	-1.04	S=C(Nc1ccccc1Cl)N1CCCC1
i	0.71	Oc1c(Cl)cccc1C=Nc1cc(C(F)(F)F)ccc1N1CCCC1
i	0.25	COc1ccccc1OCCCCN1CCN(C(c2ccccc2)c2ccccc2)CC1
i	-0.37	O=[N+]([O-])c1cc(S(=O)(=O)CCCN2CCOCC2)ccc1F
i	0.01	O=C(O)CC(NC(=O)c1cccc([N+](=O)[O-])c1)c1ccc2c(c1)OCO2 (stereo not drawn)
i	-1.54	COc1ccccc1-n1c(=O)c2c3c(sc2n2c(=S)[nH]nc12)CCC3
i	1.36	COc1cc(C(=O)CSc2nccn2C)cc(OC)c1OC
i	0.88	CCN(CC)S(=O)(=O)c1ccc2oc(C(=O)NCc3ccc(C)cc3)c(C)c2c1
i	0.93	COc1ccc(CN(C)CC(=O)Nc2ccc(Cl)cc2F)c(OC)c1
i	-0.2	Cc1ccc(-c2nnc(SCC(=O)N(CC(C)C)c3c(N)n(Cc4ccccc4)c(=O)[nH]c3=O)n2N)cc1
i	0.07	O=C(NC1CCCCC1)C(c1ccc(O)cc1)N(CC1CCCO1)C(=O)C1COc2ccccc2O1 (stereo not drawn)
i	0.73	O=C(CCc1ccccc1)NC(NC(=S)Nc1cccc(Cl)c1)C(Cl)(Cl)Cl (stereo not drawn)
i	-0.06	O=C(Nc1ccc(F)c(F)c1)C1CCCN1S(=O)(=O)c1ccc(F)cc1 (stereo not drawn)
i	-0.27	COC(=O)c1[nH]c2ccccc2c1NC(=O)CN1CCN(C/C=C/c2ccccc2)CC1
i	-0.05	c1ccc(-c2nc(NCc3ccco3)c3oc4ccccc4c3n2)cc1
i	2.49	CCN1CCCC1CNC(=O)c1ccc(N2CCCC2=O)cc1 (stereo not drawn)
i	-0.7	Cn1c(SCC(=O)N2CCOCC2)nnc1-c1ccc2ncccc2c1
i	0.14	CCNNC(=O)C(O)(Cc1ccccc1)Cc1ccccc1
i	-1.12	CN(CCOc1ccccc1)Cc1nc2cc(Cl)ccc2c(=O)[nH]1
i	0.06	COc1ccc(C(=O)Nc2nc(C)cc(C)n2)cc1[N+](=O)[O-]
i	0.04	COc1ccc(C2Nc3cccc4cccc(c34)N2)cc1
i	0.99	CCCn1c(CCC(=O)O)ccc1-c1ccc(F)cc1
i	0.04	CCc1nn(CC(=O)NCCC2=CCCCC2)c(=O)c2cc3cc(F)ccc3n12
i	-1.33	Cc1ccc(NC(=S)/N=C(\N)Nc2nc(C)c3cc(C)c(C)cc3n2)cc1C
i	2.49	CCCn1cnc2cc(NCc3ccc(Br)cc3)ccc21
i	0.42	CCOC(=O)Cn1c(C)c(C#N)c2ccccc21
i	-0.63	CCN1CCN(c2ncc3c(n2)CC(c2cc(OC)c(OC)c(OC)c2)CC3=O)CC1 (stereo not drawn)
i	0.05	COc1ccc(C2CC(=O)Oc3c(C(CCN4CCOCC4)c4cc(OC)c(OC)c(OC)c4)c(OC)cc(OC)c32)cc1 (stereo not drawn)
i	2.96	O=C(Nc1ccccc1)NC1CCN(Cc2nnnn2C2CCCCC2)CC1
i	4.37	CC1(C)CC(=O)C2=C(C1)c1c(ccc3ccccc13)NC2c1ccc(OCC(=O)O)cc1 (stereo not drawn)
i	1.57	CCN(CC(=O)Nc1ccc(NC(C)=O)cc1)C(=O)c1cc(C)on1
i	1.58	Cc1cc(C)n2nc3nc(N4CCCC4)nc(-c4ccccc4)c3c2n1
i	-0.68	CCOCCCNC(=S)Nc1cc(OCC)c(NC(=O)c2ccco2)cc1OCC
i	-0.34	COc1cc(Cn2cnnn2)ccc1O
i	-0.78	COc1cc(C2=NOC(C(=O)Nc3ccc4c(c3)OCO4)C2)cc(OC)c1OC (stereo not drawn)
i	-0.33	Cc1ccc(-c2cn(-c3ccccc3F)c(=S)[nH]2)cc1
i	0.76	O=C(Nc1ccc(Cl)c(Cl)c1)Nc1ccccn1
i	-1.08	COc1cccc(Nc2nnc(Cc3cccnc3)c3ccccc23)c1
i	-0.02	CC(C)CN1CCNC(=O)C1CC(=O)NCCCN1CCCc2ccccc21 (stereo not drawn)
i	1.5	COc1ccc(S(=O)(=O)Oc2cc(C(=S)N3CCOCC3)ccc2OC)cc1

5 records picked at random from those above:
KCNQ2 block	KCNQ2 block baseline	molecule
i	-0.34	COc1cc(Cn2cnnn2)ccc1O
i	-1.08	COc1cccc(Nc2nnc(Cc3cccnc3)c3ccccc23)c1
i	-0.68	CCOCCCNC(=S)Nc1cc(OCC)c(NC(=O)c2ccco2)cc1OCC
i	-0.33	Cc1ccc(-c2cn(-c3ccccc3F)c(=S)[nH]2)cc1
i	-0.02	CC(C)CN1CCNC(=O)C1CC(=O)NCCCN1CCCc2ccccc21 (stereo not drawn)

Continued:
KCNQ2 block	KCNQ2 block baseline	molecule
i	-1.94	CC1CN(c2cc3nccnc3cc2F)CC(C)O1 (stereo not drawn)
i	0.75	Cc1ccc(C2CC(=O)c3cnc(N4CCc5ccccc5C4)nc3C2)cc1 (stereo not drawn)
i	-0.26	Cc1cc(=O)[nH]c(SCC(=O)Nc2ccc(Br)cc2)c1C#N
i	-1.18	O=[N+]([O-])c1ccc2c(c1)c1ccccc1n2CCO
i	-0.46	COC(=O)C1=C(CS(=O)(=O)c2cc(Cl)ccc2OC)NC(=O)NC1c1ccc(O)c(OC)c1 (stereo not drawn)
i	-1.35	CC(=O)Nc1ccc(S(=O)(=O)Nc2ccccc2N2CCOCC2)cc1Cl
i	0.01	COC(=O)c1cc(-c2ccc(Br)cc2)c2c(=O)n(C)c(=O)n(C)c2n1
i	-0.41	COc1ccc(C(=O)COC(=O)CCNS(=O)(=O)c2ccc(NC(C)=O)cc2)c(OC)c1

An excerpt of these results, as a markdown table.
| canonical_smiles | KCNQ2 block | KCNQ2 block baseline |
| --- | --- | --- |
| Cc1ccc(C2CC(=O)c3cnc(N4CCc5ccccc5C4)nc3C2)cc1 (stereo not drawn) | i | 0.75 |
| Cc1cc(=O)[nH]c(SCC(=O)Nc2ccc(Br)cc2)c1C#N | i | -0.26 |
| O=[N+]([O-])c1ccc2c(c1)c1ccccc1n2CCO | i | -1.18 |
| COC(=O)C1=C(CS(=O)(=O)c2cc(Cl)ccc2OC)NC(=O)NC1c1ccc(O)c(OC)c1 (stereo not drawn) | i | -0.46 |

Further records.
KCNQ2 block	KCNQ2 block baseline	molecule
i	0.02	COC(=O)c1[nH]c2ccc(C)cc2c1NC(=O)CN1CCCc2ccccc21
i	-1.49	Cc1c(Cl)cccc1NC(=S)NCCc1ccc(Cl)cc1
i	0.04	Cc1ccc(C)c(N2C(=O)CC(Cc3ccc(Cl)cc3)C2=O)c1 (stereo not drawn)
i	0.42	CCC(=O)OC1(C)C(=O)C2=COC(c3ccc(OC)cc3)=CC2=C(Br)C1=O (stereo not drawn)
i	-2.36	O=C(CCN1C(=O)[C@@H]2Cc3ccccc3CN2C1=O)NCCc1ccccc1
i	-0.07	CC(=O)Nc1ccc(S(=O)(=O)N2CCSC2c2ccccc2Cl)cc1 (stereo not drawn)
i	-1	O=C(NCCCN1CCOCC1)c1cc(C(=O)C2CC2)c[nH]1
i	3.64	O=C(NCc1ccc2[nH]c3c(c2c1)CCCC3)N1CCOCC1
i	0.56	C=CCc1cccc(CNc2ccc(S(=O)(=O)Nc3nccnc3OC)cc2)c1O
i	0.13	Nc1ncnc(Sc2ccc(Cl)cc2)c1[N+](=O)[O-]
i	0.09	CCOC(=O)CC(NC(=O)Cn1nnc(-c2ccccc2)n1)c1ccc(OC)cc1 (stereo not drawn)
i	-0.36	CCOC(=O)CN1C(=O)C(CC)Oc2ccc(Cl)cc21 (stereo not drawn)
i	3.63	COc1cccc(/C=N/NC(=O)c2[nH]nc3c2CCc2ccccc2-3)c1O
i	-0.05	O=C(c1ccc(N2C(=O)c3ccccc3C2=O)cc1)N1CCCCC1

Bioassay records from PubChem.
